SNCA expr inhib – reduces expression of the alpha-synuclein gene; Potency, µM (doses to about 57.2 µM), for inactives: at the top dose activity change, negative = inhibition, hits mostly inhibitors; 140,000 tested, 0.17% active; AID 1671194; HEK-293 SNCA-luciferase knock-in, luminescence, 24 h;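 also: plate controls were DMSO cells for no effect and cell-free wells for full effect; nearly all actives have a fitted effect of over 45% in size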
FLuc inh – blocks purified firefly luciferase enzyme activity; AID 1347043; P08659; Potency, µM (titrated, usually from 115 µM), without a hit: top-dose activity change, negative = inhibition, most hits filed as inhibitors; purified P. pyralis luciferase, luminescence, biochemical; 76,000 tested, 2.5% active; also: nearly all actives have a fitted effect of over 65% in size
Target sequence (P08659 whole entry, looked up): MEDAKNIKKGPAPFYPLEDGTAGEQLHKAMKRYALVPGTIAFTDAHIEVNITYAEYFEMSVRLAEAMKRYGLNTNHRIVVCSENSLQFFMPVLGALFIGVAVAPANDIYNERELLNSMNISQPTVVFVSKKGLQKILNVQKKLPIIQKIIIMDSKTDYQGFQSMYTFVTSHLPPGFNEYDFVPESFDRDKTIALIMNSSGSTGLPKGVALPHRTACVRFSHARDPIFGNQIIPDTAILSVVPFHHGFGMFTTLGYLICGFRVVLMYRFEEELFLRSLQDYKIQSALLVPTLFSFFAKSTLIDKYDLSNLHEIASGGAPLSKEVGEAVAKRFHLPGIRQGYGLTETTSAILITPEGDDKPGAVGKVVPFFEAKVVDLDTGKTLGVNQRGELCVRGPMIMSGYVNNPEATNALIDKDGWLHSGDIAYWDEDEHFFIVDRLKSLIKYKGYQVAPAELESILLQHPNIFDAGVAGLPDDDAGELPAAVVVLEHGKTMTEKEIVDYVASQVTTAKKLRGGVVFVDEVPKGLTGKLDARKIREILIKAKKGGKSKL
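Purified P. pyralis luciferase (10nM final) in 50mM Tris acetate pH 7.5, 10mM Mg acetate, 0.01% Tween-20, 0.05% BSA with 10uM D-luciferin and 10uM ATP. Compounds titrated qHTS. Luminescence imaged on CCD.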
NIH3T3 tox – kills NIH 3T3 cells; NIH 3T3 viability, CellTiter-Glo ATP luminescence, 48-72 h; Potency, µM (doses to about 96.7 µM), inactives show at the top dose activity change, negative = cytotoxicity, actives largely listed as inhibitors; 94,000 tested, 4.3% active; AID 1345082; also: nearly all actives have a fitted effect of over 55% in size
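Luminescent ATP readout (CellTiter-Glo, 10 min RT) after 48 or 72 hr compound exposure of NIH 3T3 cells seeded at 400 cells/well in 1536-well format; quantitative HTS.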
HEK cytotox – cytotoxic compounds in HEK 293 cells | 94,000 tested, 6.6% active | HEK 293 viability, ATP luminescence (CellTiter-Glo), 48-72 h | Potency, µM (highest dose often 115 µM), without a hit: at the top dose activity change, negative = cytotoxicity, most hits filed as inhibitors; also: nearly all actives have a fitted effect of over 60% in size
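Read-out: CellTiter-Glo ATP luminescence. Cells: HEK 293, 250 cells/well. Exposure: 48 or 72 hr, 37 degree Celsius.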
GPT2 inh – inhibitors of human GPT2 alanine aminotransferase; Q8TD30; Recombinant GPT2, coupled pyruvate oxidase/HRP Amplex Red fluorescence; Potency, µM (titrated, usually from 57.7 µM), for the others: at the top dose activity change, negative = inhibition, hits mostly inhibitors; 100,000 tested, 0.25% active; also: nearly all actives have a fitted effect of over 60% in size; many of its hits are not listed in these tables
Target sequence (Q8TD30 whole entry, looked up): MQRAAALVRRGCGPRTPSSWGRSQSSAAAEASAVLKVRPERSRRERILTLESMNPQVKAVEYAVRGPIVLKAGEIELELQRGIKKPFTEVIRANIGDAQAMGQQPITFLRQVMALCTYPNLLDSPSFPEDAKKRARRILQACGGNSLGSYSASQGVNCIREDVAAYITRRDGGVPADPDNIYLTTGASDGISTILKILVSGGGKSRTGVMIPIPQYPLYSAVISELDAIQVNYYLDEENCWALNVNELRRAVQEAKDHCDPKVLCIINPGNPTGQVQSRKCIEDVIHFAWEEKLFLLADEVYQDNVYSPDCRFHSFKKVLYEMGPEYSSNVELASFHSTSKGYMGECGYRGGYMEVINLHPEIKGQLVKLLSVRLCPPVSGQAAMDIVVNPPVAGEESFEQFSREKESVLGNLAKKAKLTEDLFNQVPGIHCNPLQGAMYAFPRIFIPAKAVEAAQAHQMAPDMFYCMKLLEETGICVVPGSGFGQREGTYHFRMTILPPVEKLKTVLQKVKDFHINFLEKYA
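Inhibition is scored from Amplex Red fluorescence generated when pyruvate oxidase and HRP act on pyruvate released by GPT2. Reactions contain 10ng/uL enzyme, 250uM a-KG and 2mM L-alanine and run 30 min at room temperature.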
HEK293 viab – cell viability loss counter-screen | HEK-293-SNCA-luc viability, GF-AFC fluorescence, 24 h | Potency, µM (doses to about 57.1 µM), for inactives: at the highest dose activity change, negative = cytotoxicity, actives largely listed as cytotoxic | 150,000 tested, 0.12% active | AID 1671193;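 also: 0% = DMSO-treated cells and -100% = medium-only wells without cells; nearly all actives have a fitted effect of over 30% in size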
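HEK-293-SNCA-luc cells (1500/well) plated 24 h, then exposed 24 h to a dilution series; GF-AFC added 30 min at 37C, fluorescence 405/540 nm; normalised to medium-only and DMSO wells, Hill fit.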
Starred values were filed as active, the others as inactive; i = inactive; ? = inconclusive; . = no result given; & = joins results of further samples; [ ] = remark or other dose. Calls follow the shape of the dose curve; as a rule, active = well fitted curve in the direction sought with a large enough effect; inconclusive = small, poorly fitted or top-dose-only effect, or another doubt; inactive = no such curve, though single readings can be large; an effect the other way counts as inactive or inconclusive. Unless noted, % is scaled to controls: 0 for no effect and ±100 for the full control effect; potency is read from the fitted curve at half-maximal effect.

SMILES	FLuc inh	HEK293 viab	SNCA expr inhib	GPT2 inh	NIH3T3 tox	HEK cytotox
Cc1coc2c1c(C)cc1oc(=O)c(CC(=O)NCc3ccc(Cl)cc3)c(C)c12	.	-1.8%	-3.3%	.	.	.
COc1ccc(CCNc2nc(-c3ccc(C)cc3)cc(C(F)F)n2)cc1OC	.	1.1%	-16.0%	.	.	.
O=C(Nc1ccc2c(c1)CCCN2C(=O)c1cccs1)c1cccc(C(F)(F)F)c1	.	-20.2%	-25.6%	.	.	.
COc1cccc(OC)c1C(=O)NCCc1csc(-c2ccc(Cl)cc2)n1	.	-13.8%	-10.8%	.	.	.
COc1ccc(NC(=O)C2=CC(c3ccc4c(c3)OCO4)=NS(=O)(=O)N2C)cc1OC	.	-21.6%	35.6%[activator]	.	.	.
COc1ccc(CCN2CC(C(=O)NCCc3ccccc3)CC2=O)cc1OC (stereo not given)	.	8.4%	32.5%[activator]	.	.	.
Cc1nn(C)cc1-c1nc2cc(S(=O)(=O)NC(C)C)ccc2n1C(C)C	5.6%	0.9%	9.4%	-17.2%	-26.5%	1.0%
CCc1nccn1CCNC(=O)c1cccc(C2CCNC2)c1 (stereo not given)	0.0%	-11.1%	-18.4%	-12.6%	-6.4%	i
Cc1nn(C)c2c1c(C(F)(F)F)cc(=O)n2C(C)C(=O)Nc1ccccc1F (stereo not given)	.	2.7%	-10.3%	.	.	.
COc1cc(OC)c(N(C)C(=O)Nc2cn(CC(C)C)c(=O)c3ccccc23)cc1Cl	.	-15.2%	-21.7%	.	.	.
CN1CCOc2c(C(=O)NCCC(N)=O)cc(-c3ccccc3O)cc21	-4.7%[172 µM]	-6.9%[87.6 µM]	5.3%[87.6 µM]	-11.7%[88.5 µM]	?	-6.6%[172 µM]
CN(C)c1cccc(-c2cnc(Nc3cnccn3)c3c2CCO3)c1	-14.7%[172 µM]	-13.8%[87.6 µM]	78.8%[activator][87.6 µM]	4.2%[88.5 µM]	?	?
Fc1cccc(-c2cnc(Nc3cncnc3)c3c2CCO3)c1	1.2%[172 µM]	-6.5%[87.6 µM]	36.3%[activator][87.6 µM]	i	-24.4%[138 µM]	?
Cc1cccc(NC(=O)C(=O)NCC(c2ccc3c(c2)OCO3)N2CCOCC2)c1C (stereo not given)	.	1.9%	23.6%	.	.	.
Cc1cc(C)c2c(=O)cc(C(=O)Nc3ccc(S(=O)(=O)N(C)Cc4ccccc4)cc3)oc2c1	.	9.5%	-2.1%	.	.	.
O=C(NCCc1csc(-c2ccc(F)cc2)n1)c1ccco1	.	-4.9%	42.3%[activator]	.	.	.
Cn1cc(-c2cnc3n[nH]c(-c4ccccc4)c3n2)cn1	-5.2%[230 µM]	-20.8%[87.6 µM]	?	-12.5%[88.5 µM]	?	?
O=C(NCCc1csc(-c2ccc(F)cc2)n1)c1ccc(Br)o1	.	-9.1%	-26.5%	.	.	.
CC1=C(C(=O)Nc2cccnc2)C(c2ccccc2)n2nc(-c3ccc(O)cc3)nc2N1 (stereo not given)	.	-7.3%	?	.	.	.
Cc1ncsc1CN1C[C@@H](NC(=O)c2cccnc2)C[C@H]1CO	-4.0%	-9.8%	5.3%	?	?	?
O=C(CCS(=O)(=O)c1nc(-c2ccc3c(c2)OCO3)cc(C(F)(F)F)n1)Nc1ccccc1F	.	9.7%	-1.6%	.	.	.
CCCCNC(=O)C1=CC(c2ccc3c(c2)OCO3)=NS(=O)(=O)N1C	.	-3.4%	8.8%	.	.	.
Cc1ccc(CN2C(=O)SC(Nc3ccc(Cl)cc3)C2=O)cc1 (stereo not given)	.	-16.1%	5.8%	.	.	.
Cc1ccc(NC(=O)C(=O)NCC(c2ccc3c(c2)OCO3)N2CCN(C)CC2)c(C)c1 (stereo not given)	.	6.7%	-1.8%	.	.	.
CCN(Cc1ccncc1)C(=O)C(CO)c1ccccc1 (stereo not given)	.	5.2%	2.1%	-6.8%&-11.2%	.	.

Further records follow:
SMILES	FLuc inh	HEK293 viab	SNCA expr inhib	GPT2 inh	NIH3T3 tox	HEK cytotox
N#CC1CCN(C(=O)c2nc(-c3cccnc3)c3ccccn23)CC1	.	-8.5%	10.6%	i	?	i
CCOc1ccccc1C(=O)NC1(C(F)(F)F)C(=O)Nc2c1c(=O)[nH]c(=O)n2-c1ccccc1 (stereo not given)	.	-5.3%	0.6%	.	.	.
O=c1c2cn[nH]c2nc(SCc2c(F)cccc2F)n1-c1ccc(Cl)cc1	.	-2.4%	-6.5%	.	.	.
Cc1ccsc1CN1C[C@@H](NC(=O)c2cccnc2)C[C@H]1CO	6.3%	-4.7%	1.1%	1.7%	-15.6%	?
CCn1cc(C(=O)N2C[C@@H](COC)[C@H](c3nc(C)no3)C2)cn1	-3.9%	?	?	-15.8%	1.4%	-2.8%
COc1cccc(C2C(C(=O)Nc3ccccc3)=C(C)Nc3nc(-c4ccccc4)nn32)c1 (stereo not given)	.	-9.8%	-13.0%	.	.	.
O=C(CSc1oc(-c2ccccc2)nc1S(=O)(=O)c1ccccc1)c1ccccc1	.	-11.5%	-14.3%	.	.	.
CCC(Sc1nc2cc(OC)c(OC)cc2c(=O)n1Cc1ccc(Cl)cc1)C(=O)NCCOC (stereo not given)	.	-1.1%	-5.9%	.	.	.
COc1ccc(-c2nc(CCNC(=O)c3ccccc3)cs2)cc1OC	.	-1.8%	17.0%	.	.	.
COCCNC(=O)C1CCC(CNS(=O)(=O)c2ccc3c(c2)CC(C)N3C(C)=O)CC1 (stereo not given)	.	-0.5%	19.7%	.	.	.
COC1CCN(C(=O)c2cnc3c(c2)N(Cc2ccccc2)CCC3)CC1	-10.7%[172 µM]	4.3%[87.6 µM]	-20.0%[87.6 µM]	i	?	-21.1%[172 µM]
Nc1nc(O)c(C2=C3C(=Nc4ccccc43)C(=O)NCC2)[nH]1	.	-13.7%	.	-4.5%	.	.
COc1ccc(CNC(=O)C(=O)NCC(c2ccc3c(c2)OCO3)N2CCOCC2)cc1 (stereo not given)	.	15.5%	2.2%	.	.	.
CCCOC(c1cc2nccc(C(=O)O)c2[nH]1)c1ccccc1Cl (stereo not given)	.	-3.4%	.	3.0%	.	.
COc1ccccc1CNc1nccn(-c2ccc(F)cc2)c1=O	.	-5.0%	50.6%[activator]	.	.	.
COc1cccc([S+](=O)([O-])N2CCC(N3CCCC3=O)CC2)c1	3.2%[172 µM]	9.2%[87.6 µM]	-21.1%[87.6 µM]	-1.4%[88.5 µM]	-21.0%[138 µM]	-2.7%[172 µM]
COc1ccc(CN2CCC(N3Cc4ccccc4C3=O)CC2)cc1	.	-4.7%	31.4%[activator]	i	3.0%	-12.5%
Cc1ccc(NC(=O)c2sc(-n3nc(C)c(Cc4ccc(Cl)cc4)c3C)nc2C)cc1	.	-5.8%	-15.6%	.	.	.
O=C(c1ccc(C(F)(F)F)cc1)N1CCC(n2c(=O)[nH]c3ccccc32)CC1	.	-10.4%&-2.3%	-16.7%&-9.1%	3.2%&2.6%	-12.4%&-14.4%	?
COc1ccccc1N1CCCc2ncc(C(=O)NCc3cccc(Cl)c3)cc21	-1.1%[172 µM]	-5.6%[87.6 µM]	-26.6%[87.6 µM]	i	-25.4%[138 µM]	?
Cc1ccc(NC(=O)c2sc(-n3nc(C)c(CCC(C)C)c3C)nc2C)cc1C	.	2.0%	1.1%	.	.	.
O=C(NCc1ccc(F)cc1)C1=NOC2CN(C(=O)C3CC3)CC12 (stereo not given)	.	6.6%	?	-9.7%	3.8%	i
N#CC1CCN(C(=O)c2nc(-c3cccnc3)c3cnccn23)CC1	-2.3%[172 µM]	9.0%[87.6 µM]	?	3.3%[88.5 µM]	-23.2%[138 µM]	?
COc1ccccc1N1CCCc2ncc(C(=O)NCc3ccccc3)cc21	6.0%[172 µM]	8.5%[87.6 µM]	9.7%[87.6 µM]	i	?	-15.8%[172 µM]
CCc1ccccc1NC(=O)C1=CC(c2ccc3c(c2)OCO3)=NS(=O)(=O)N1C	.	3.5%	?	.	.	.

Remaining list, next part:
SMILES	FLuc inh	HEK293 viab	SNCA expr inhib	GPT2 inh	NIH3T3 tox	HEK cytotox
CC(C)n1c(=N)c(C(=O)NCc2ccccc2)cc2c(=O)n3ccccc3nc21	.	?	-14.8%	.	.	.
COc1ccc(-c2cc(C(F)(F)F)nc(SCC(=O)NCC(C)C)n2)cc1OC	.	-6.0%	-4.2%	.	.	.
COCCNC(=O)C(=O)NCC(c1cccnc1)N1CCN(c2ccccc2F)CC1 (stereo not given)	.	7.4%	28.7%	.	.	.
COC(=O)c1c(NC(=O)CCCOc2ccc(C(C)(C)C)cc2)sc2c1CCC(C)C2 (stereo not given)	.	-0.4%	8.4%	.	.	.
O=C(O)c1cccc(-c2ccc(-c3cn(C(=O)N4CCCCC4Cc4ccccc4)nn3)cc2)c1 (stereo not given)	.	-41.5%	.	-6.3%	.	.
c1cc(N2CCOCC2)ccc1-c1cc(-c2cn[nH]c2)c2cncn2c1	22.4µM*	-11.1%[87.6 µM]	7.7%[87.6 µM]	i	?	?
C#CCNC(=O)c1nc(-c2ccc(Cl)nc2)c2cnccn12	.	10.6%[87.6 µM]	-4.6%[87.6 µM]	-3.7%[88.5 µM]	-15.8%[138 µM]	-7.4%[172 µM]
N#CC1CCN(C(=O)c2nc(-c3ccc(Cl)cc3)c3ccccn23)CC1	-3.9%	2.2%	-17.4%	i	?	?
CC(=O)N1c2ccc(S(=O)(=O)NCC3CCC(C(=O)Nc4ccc(C)cc4)CC3)cc2CC1C (stereo not given)	.	7.9%	29.4%	.	.	.
O=C(O)C1=NOC2CN(C(=O)C3CCCCC3)CC12 (stereo not given)	.	3.0%[87.6 µM]	-3.7%[87.6 µM]	i	-16.5%[138 µM]	-4.5%[172 µM]
Cc1cc(C)cc(NC(=O)CSc2oc(-c3ccccc3)nc2S(=O)(=O)c2ccccc2)c1	.	-4.6%	-14.7%	.	.	.
O=C(O)C1=NOC2CN(C(=O)Cc3ccccc3)CC12 (stereo not given)	.	1.3%[87.6 µM]	-21.8%[87.6 µM]	i	-8.0%[138 µM]	3.1%[172 µM]
Cc1ccc2nc(C(=O)N[C@H](c3cnn(C)c3)C3CC(O)C3)cn2c1 (stereo not given in full)	-12.5%	-3.8%	68.5%[activator]	i	-0.7%	1.6%
Cc1noc(C)c1[S+](=O)([O-])N1CCn2c(nn(-c3cccc(Cl)c3)c2=O)C1	.	-2.3%	-7.9%	i	-16.1%	-27.0%
COc1cccc(CNC(=O)C(C)n2c(=O)cc(-c3ccccc3)c3c(C)nn(C)c32)c1 (stereo not given)	.	-3.4%	-4.0%	.	.	.
COCCNC(=O)C(=O)NCC(c1ccc2c(c1)OCO2)N1CCOCC1 (stereo not given)	.	?	10.9%	.	.	.
CCc1ccc(NC(=O)c2sc(-n3nc(C)c(Cc4ccc(OC)cc4)c3C)nc2C)cc1	.	6.3%	-8.9%	.	.	.
CCOCCCn1c(=N)c(C(=O)NCc2cccnc2)cc2c(=O)n3cc(C)ccc3nc21	.	?	-3.3%	.	.	.
Cc1ccc(CNC(=O)C(CC(C)C)N2Cc3ccccc3C2=O)cc1 (stereo not given)	.	-24.1%	-14.9%	.	.	.

High-throughput results from PubChem.

This is a subset, so the mix of outcomes need not match the whole.
